# gsp antag = gsp mutant antagonism | gsp-mutant cells, cAMP HTRF, 30 min; control for the full effect not named in the record | Potency, µM (doses to about 76.9 µM), without a hit: at the top dose activity change, negative = inhibition, actives largely listed as inhibitors | actives 0.4% (n = 340,000); active = falling curve of any shape with a large fitted effect; inconclusive = falling curve, mostly with a smaller effect; inactive = flat or rising curve; cell line not stated here;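 further: intracellular cAMP measured with PDE inhibitor Ro 20-1724 present during compound exposure; potency means the concentration at half of the fitted maximal effect; on the % scale 0 is the no-effect control and ±100 the full control effect; nearly all actives have a fitted effect of over 65% in size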
#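 HTRF cAMP measurement after 30 min RT detection following 30 min, 37C compound treatment alongside […] (added as 300 uM solution) in G418-selected cells seeded at 2000/well and grown 16–24 h.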
# D2 potentiator = positive allosteric modulators of human D2 dopamine receptor | P14416 | DiscoveRx D2 beta-arrestin cells, luminescence, 90 min; 100% = 57 uM dopamine signal | potentiation, % (concentration not given with the values) | actives 0.23% (n = 360,000); active = potentiation of 50% or more; inconclusive = 30% to 50%; inactive = 30% or less;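 further: compound concentration not given in the record; tested on top of an EC20 dose of dopamine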
# Target sequence (P14416 whole entry, looked up): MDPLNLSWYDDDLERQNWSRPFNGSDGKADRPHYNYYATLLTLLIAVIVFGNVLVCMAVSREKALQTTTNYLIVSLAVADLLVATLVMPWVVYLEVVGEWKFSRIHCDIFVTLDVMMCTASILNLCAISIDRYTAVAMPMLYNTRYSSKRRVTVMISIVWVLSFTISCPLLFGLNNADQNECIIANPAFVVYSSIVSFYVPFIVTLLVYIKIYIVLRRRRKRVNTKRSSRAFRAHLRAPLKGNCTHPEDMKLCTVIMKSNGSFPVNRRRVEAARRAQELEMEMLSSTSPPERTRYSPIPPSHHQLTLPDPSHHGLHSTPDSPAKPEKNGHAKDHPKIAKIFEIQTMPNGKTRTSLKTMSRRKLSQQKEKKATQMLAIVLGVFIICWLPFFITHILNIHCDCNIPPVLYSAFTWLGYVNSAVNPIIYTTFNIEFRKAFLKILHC
#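 D2 cells co-treated with compound plus 50 nM dopamine (EC20) for 90 min at 37 deg C to detect potentiation. Beta-arrestin recruitment was read as enzyme-fragment luminescence after 1 h at ambient temperature. Full response was set by 57 uM dopamine.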
# CtBP-E1A blk = inhibitors of CtBP/E1A interaction; activity change, % (no concentration beside the values); AID 651724; AlphaScreen GST-E1A/His-CtBP binding, 1536-well; stronger effect = lower value; control for the full effect not named in the record; actives 0.49% (n = 340,000); in the data active means activity change below about -65%; inconclusive means about -30% to -65%; inactive means above about -30%; further: on the % scale 0 is the no-effect control and ±100 the full control effect; compound concentration not given in the record
#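 AlphaScreen with 125 nM GST-E1A and 125 nM His-CtBP (5X stocks) in Tris pH 8.0, 300 mM NaCl, BSA, Tween 20, TCEP. Compounds preincubated 2 h at 37 deg C, then glutathione donor/nickel acceptor beads added for 1 h at 37 deg C in dark.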
# D2 agonist = human D2 receptor agonism in beta-arrestin assay | P14416 | DiscoveRx PathHunter D2 beta-arrestin, luminescence, 90 min; 100% = 57 uM dopamine signal | activation, % (no concentration beside the values) | actives 0.084% (n = 360,000) | AID 624465; in the data active = activation above about 40%; inconclusive = about 15% to 40%; inactive = below about 15%; further: compound concentration not given in the record; the text of the record calls up to 30% inactive
#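 DiscoveRx PathHunter D2 beta-arrestin cells (2,100/well) attached overnight, then compound-stimulated 90 min at 37 C in HBSS/10 mM HEPES/0.1% Tween-20 buffer; beta-galactosidase complementation read by luminescence after 1 h at ambient temperature. Dopamine 57 uM final (EC100) as control.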
# Six1-Eya2 inh = Six1/Eya2 interaction inhibition. Q15475+O00167. AlphaScreen GST-Six1/His-Eya2 binding, biochemical; stronger effect = lower value; control for the full effect not named in the record. activity change, % (test concentration not listed). actives 0.56% (n = 360,000). AID 651725; in the data active = activity change below about -65%; inconclusive = about -30% to -65%; inactive = above about -30%; further: on the % scale 0 is the no-effect control and ±100 the full control effect; compound concentration not given in the record
#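 Six1/Eya2 binding was read as AlphaScreen signal after compounds were pinned into GST-Six1 plus His-tagged Eya2 (5X stock 250/500 nM) in pH 8.0 Tris/NaCl/TCEP buffer, beads added, then incubated 1 h, 37 C, dark.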
# gsp ag = agonists of gsp mutant (McCune-Albright syndrome); Potency, µM (doses to about 76.9 µM), inactives show top-dose activation (cAMP increase), hits mostly activators; AID 624287; actives 0.13% (n = 340,000); gsp mutant cells, cAMP HTRF, 30 min; control for the full effect not named in the record; active = well fitted activation curve with a large enough effect; inconclusive = small, poorly fitted or top-dose-only effect, or another doubt; inactive = no such curve, though single readings can be large or run the other way; cell line not stated here;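 further: phosphodiesterase inhibitor Ro 20-1724 added with compounds to block cAMP breakdown; potency means the concentration at half of the fitted maximal effect; nearly all actives have a fitted effect of over 60% in size; about a fifth of the inactives were tested at one dose only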
#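 Cells in DMEM/10% FBS with G418 were pretreated with compounds in DMSO plus […] (300 uM stock) for 30 min at 37C. cAMP was measured by HTRF (cAMP-d2 plus anti-cAMP antibody-K) after 30 min at room temperature.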
# Active calls of the source: *; ? = inconclusive; . = not tested or not shown; [ ] = remark or other dose.
SMILES,gsp antag,D2 potentiator,CtBP-E1A blk,D2 agonist,Six1-Eya2 inh,gsp ag
O=C1CC(=C(c2ccccc2)c2ccccc2)C(=O)N1CCCCN1CCN(c2ccccc2)CC1,-4%,-18,?,?,?,2%
COc1cccc(C(=O)Nc2ccccc2)c1,9%,-4,6,-3.2,4,5%
O=C(CSc1nc2scc(-c3ccco3)c2c(=O)n1-c1ccccc1)NCC1CCCO1 (stereo not drawn),-6%,11,-3,0.2,-7,29%
CN(C(=O)Cn1nc(C(=O)O)c2ccccc2c1=O)c1ccccc1,6%,-10,2,-0.9,8,18%[15.4 µM]
COc1cc(CNCCNC(=O)c2nonc2N)ccc1OCc1ccc(Cl)cc1,-15%,-38,3,-5.7,2,15%[15.4 µM]
Cc1nc2nc(SCC(=O)NCCCN3CCCC(C)C3)nn2c(C)c1Cc1ccccc1Cl (stereo not drawn),-11%,-14,-2,-2.0,-4,?
N=C1C(c2ccccc2)=C(O)CN1c1cccc(S(=O)(=O)Nc2cccc(C(F)(F)F)c2)c1,-22%,-2,3,-2.8,3,-27%
Fc1ccc(-c2ccc3c(c2)C2CC3CCN2Cc2ccc3c(c2)OCO3)cc1 (stereo not drawn),3%,.,-20,-2.3,-23,.
O=C(c1cccc(S(=O)(=O)N2CCCCC2)c1)N(CCc1ccccc1)Cc1ccccc1,?,-11,4,-4.4,-3,-36%[inhibitor]
COc1ccc(OC)c(NC(=O)c2cccc(C)c2[N+](=O)[O-])c1,-24%,0,24,0.7,7,0%
CCc1nnc(NC(=O)CSc2nnc(Cc3ccccc3)n2Cc2ccccc2)s1,?,-18,4,-3.4,-3,16%
CC(=O)c1ccc(N2CCN(CC(O)COCc3ccco3)CC2)cc1 (stereo not drawn),27%,-8,.,-1.1,9,5%
O=C(CCc1ccccc1)Nc1ccc(NS(=O)(=O)c2ccccc2)cc1,-16%,-4,.,0.5,0,-19%
CCN(C(=O)Cn1c(=O)n(-c2cc(OC)c(OC)c(OC)c2)c(=O)c2ccccc21)c1cccc(C)c1,-16%,-1,7,-0.5,5,6%
Cc1cc(=O)[nH]c(N2CCc3ccccc3C2)n1,17%,-18,2,-1.9,1,6%
CCOC(=O)CC(=O)NC(CC(=O)OC)c1ccc(Br)cc1 (stereo not drawn),7%,-7,5,-0.8,-1,2%[15.4 µM]
O=C(COC(=O)c1cc(S(=O)(=O)N2CCCC2)ccc1O)NCCc1ccccc1,-4%,2,.,-3.2,2,6%
COc1ccc(S(=O)(=O)N(CC(=O)NC2CC2)Cc2ccccc2)cc1,1%,-1,4,3.5,2,-1%
Nc1ncnc2nc(SCC(=O)N3CCN(c4ccccc4)CC3)[nH]c12,1%,-6,-3,-0.7,0,19%
Cn1cccc1C(=O)OCc1ccc(F)cc1,2%,1,-24,-0.1,-18,9%[15.4 µM]

# A stretch from further up:
SMILES,gsp antag,D2 potentiator,CtBP-E1A blk,D2 agonist,Six1-Eya2 inh,gsp ag
O=C1CC(=C(c2ccccc2)c2ccccc2)C(=O)N1CCCCN1CCN(c2ccccc2)CC1,-4%,-18,?,?,?,2%
COc1cccc(C(=O)Nc2ccccc2)c1,9%,-4,6,-3.2,4,5%
O=C(CSc1nc2scc(-c3ccco3)c2c(=O)n1-c1ccccc1)NCC1CCCO1 (stereo not drawn),-6%,11,-3,0.2,-7,29%
CN(C(=O)Cn1nc(C(=O)O)c2ccccc2c1=O)c1ccccc1,6%,-10,2,-0.9,8,18%[15.4 µM]
COc1cc(CNCCNC(=O)c2nonc2N)ccc1OCc1ccc(Cl)cc1,-15%,-38,3,-5.7,2,15%[15.4 µM]
Cc1nc2nc(SCC(=O)NCCCN3CCCC(C)C3)nn2c(C)c1Cc1ccccc1Cl (stereo not drawn),-11%,-14,-2,-2.0,-4,?
N=C1C(c2ccccc2)=C(O)CN1c1cccc(S(=O)(=O)Nc2cccc(C(F)(F)F)c2)c1,-22%,-2,3,-2.8,3,-27%
Fc1ccc(-c2ccc3c(c2)C2CC3CCN2Cc2ccc3c(c2)OCO3)cc1 (stereo not drawn),3%,.,-20,-2.3,-23,.
O=C(c1cccc(S(=O)(=O)N2CCCCC2)c1)N(CCc1ccccc1)Cc1ccccc1,?,-11,4,-4.4,-3,-36%[inhibitor]
COc1ccc(OC)c(NC(=O)c2cccc(C)c2[N+](=O)[O-])c1,-24%,0,24,0.7,7,0%
CCc1nnc(NC(=O)CSc2nnc(Cc3ccccc3)n2Cc2ccccc2)s1,?,-18,4,-3.4,-3,16%
CC(=O)c1ccc(N2CCN(CC(O)COCc3ccco3)CC2)cc1 (stereo not drawn),27%,-8,.,-1.1,9,5%
O=C(CCc1ccccc1)Nc1ccc(NS(=O)(=O)c2ccccc2)cc1,-16%,-4,.,0.5,0,-19%

# (cont.)
SMILES,gsp antag,D2 potentiator,CtBP-E1A blk,D2 agonist,Six1-Eya2 inh,gsp ag
CC(C)=CCCC1=CCC(/C=N/NC(N)=O)C(C)C1 (stereo not drawn),12%,-4,-6,-0.3,2,10%
CC1(C(=O)NCCc2c[nH]c3ccccc23)CCN1Cc1ccccc1OC(F)F (stereo not drawn),.,-3,-4,-1.5,-27,.
CN1CCN(c2nc(-c3cccnc3)nc3scc(-c4ccccc4)c23)CC1,11%,-7,-9,-0.5,-4,10%[15.4 µM]
COc1ccccc1N1CC(C)C(=O)NC1=S (stereo not drawn),8%,5,-1,-5.3,13,33%
CCCCn1cnc2c(SCc3ccccc3Cl)nc(N)nc21,-12%,-7,-2,5.2,-4,-9%
COC(=O)CN(Cc1ccco1)S(=O)(=O)c1ccccc1,-8%,-12,-3,-2.1,2,-53%[inhibitor]
CC(C)CC(=O)Nc1ccnn1C1CCN(C(=O)c2ccccc2F)CC1,3%,-8,-6,-1.6,4,-40%[inhibitor]
CCCS(=O)(=O)N1CCCC(C(=O)N2CCC(Cc3ccccc3)CC2)C1 (stereo not drawn),-23%,13,10,-2.1,0,3%
C[C@@H](C(=O)O)[C@@H]1C[C@@]1(C)[C@@H](NC(=O)OCc1ccccc1)c1ccccc1,-7%,-1,.,1.6,0,-45%[inhibitor]
Cc1cc2oc3ccc(NCCCN4CCOCC4)cc3c(=O)c2cc1C,8%,-3,0,6.8,-1,16%
O=C1C(=O)c2ccccc2C(O)=C1CC=C(Cl)Cl,?,-3,4,0.8,-6,4%
COc1ccc(C2CC(=O)C=C(NCc3ccccc3)C2)cc1 (stereo not drawn),-3%,-3,7,?,-2,-1%[15.4 µM]
Cc1ccc(S(=O)(=O)NC(=NC(C)C)c2ccccc2)cc1,-2%,-3,-3,-6.3,-1,1%
COC(=O)C1=C(C)NC(C)=C(C(=O)OCC2CCCO2)C1c1cccc(Br)c1 (stereo not drawn),1%,-12,-4,1.2,11,17%[15.4 µM]
COc1cccc(N2CC(NS(=O)(=O)c3ccc4ccccc4c3)CC2=O)c1 (stereo not drawn),-19%,-4,-2,-2.4,-8,-24%[15.4 µM]
CSc1nc(Cl)c(Cc2ccc(OC(C)C)cc2)c(N2CCOCC2)n1,-5%,-6,15,-0.6,15,6%
CCCN1CCC(N2CCN(c3cccc(C(F)(F)F)c3)CC2)CC1,9%,-11,7,-0.7,4,-9%
COc1cc(C)c(C)cc1S(=O)(=O)N1CCN(Cc2ccccc2)CC1,-15%,-10,-11,-2.3,-11,-4%
O=C(Nc1cc(F)ccc1F)c1ccc(-n2cncn2)c([N+](=O)[O-])c1,-6%,2,-6,6.3,-2,-28%[15.4 µM]
O=C(O)CN1C(=O)NC2(CCc3ccccc32)C1=O (stereo not drawn),8%,-7,-19,-1.7,13,4%[15.4 µM]
CN(NS(=O)(=O)c1ccc([N+](=O)[O-])cc1)c1ccccc1,.,-21,3,0.7,1,?
COc1ccc([C@H]2CC(=O)C=C(c3cc(C=O)ccc3OC)C2)cc1,-4%,-15,.,0.2,13,-16%
c1ccc(CCn2nnnc2C(c2cccs2)N2CCOCC2)cc1 (stereo not drawn),4%,-15,-2,3.3,5,18%
CN(Cc1cnccn1)Cc1nc(Cc2ccccc2F)no1,19%,-1,5,-0.7,2,-1%
Cc1ccc(N2CCN(C(=O)N3CCCC3)CC2)cc1Cl,?,-3,13,0.0,-2,-9%
COc1cc(NC(=O)COC(=O)[C@@H]2CCCN2S(=O)(=O)c2ccc(Cl)cc2)cc(OC)c1OC,-3%,13,-7,0.2,-14,?
N#C/C(=C(/O)CN1C(=O)c2ccccc2C1=O)c1nc2ccccc2[nH]1,-1%[15.4 µM],14,2,-3.3,-8,-6%
O=C(O)Cn1c(COc2ccc(Cl)cc2)nc2ccccc21,15%,-4,-20,-0.9,-22,19%
N#Cc1ccc(OCC(=O)Nc2ccncc2)cc1,-3%,-2,-4,-0.5,2,7%[15.4 µM]
S=c1[nH]nc(-c2ccc(Cl)cc2)n1/N=C/C=C/c1ccco1,-25%,-3,-6,1.9,-15,7%
COC(=O)C1=C(C)N(Cc2ccccc2)C(=NCCc2c[nH]c3ccccc23)N[C@H]1c1ccccc1,6%,-18,-22,-3.1,-22,5%
COc1ccc(NS(=O)(=O)c2cc(C(=O)N3CCN(C/C=C/c4ccccc4)CC3)ccc2C)cc1,?,-21,-1,3.6,?,-8%
O=C(c1ccco1)N1CCN(C(c2coc3ccc(Cl)cc3c2=O)c2nnnn2C2CCCC2)CC1 (stereo not drawn),4%,2,4,-2.2,-2,-1%
Cc1ccc(C2(C)NC(=O)N(CC(=O)c3ccc(Cl)s3)C2=O)cc1 (stereo not drawn),3%,-7,5,-1.3,-7,6%
C=C1CC(COc2cc(=O)oc3ccccc23)(c2ccccc2)OC1=O (stereo not drawn),6%,-31,4,-4.9,-2,26%
COc1ccc(C2=NN(C(=O)c3cccnc3)C(c3ccccc3)C2)cc1 (stereo not drawn),-16%,-19,-9,1.1,0,25%
O=C(Nc1ccc2c(c1)CCC2)c1ccc(F)c(S(=O)(=O)N2CCOCC2)c1,-14%,13,2,3.4,-10,-7%
COc1ccc(CNC(=O)c2sc(=O)n(Cc3ccc(C)cc3)c2C)cc1OC,.,-7,-7,7.7,-3,.
CN(C)S(=O)(=O)c1ccc(C(=O)Nc2nnc(Cc3ccccc3)s2)cc1,4%,8,0,-0.7,14,-8%
CC(OC(=O)C(NC(=O)c1ccco1)C(C)C)C(=O)Nc1ncc(Cl)cc1Cl (stereo not drawn),0%,-12,8,-2.4,3,-19%
O=C(NCCSc1ncc(-c2ccc(F)cc2)[nH]1)c1ccc2c(c1)OCO2,-13%,-37,19,-5.4,3,-5%
O=C(O)C1CCCCC1C(=O)Nc1cc(Cl)ccc1Cl (stereo not drawn),7%,-4,4,-1.1,6,-18%

# Compound activity (PubChem BioAssay)
